Screening results: PubChem BioAssay, several laboratories
eIF4H FP inh: inhibitors of RNA binding by human eIF4H. 290,000 compounds, 0.94% hits. inhibition, % at 35 µM. eIF4H fluorescence polarization binding assay. AID 2012;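 active = 50% or more with normal probe brightness, or confirmed in later tests; about a fifth of its hits are not listed in these tables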;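 note: calls also rest on retests at 20 µM and on dose response follow-up; 0% = protein and probe with vehicle and 100% = probe without protein; strong numbers were not always called active; many hits fall short of the cut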
CSC inhib: cancer stem cell inhibition. cancer stem cell-like cells viability, luminescence. inhibition, % at 7.5 µM. 300,000 compounds, 1.1% hits. AID 2717;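 active = mean at 75% or more and at least half the replicates too; tested in HMLE shEcad cells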;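 note: 0% = median of negative and 100% = median of positive control wells; the first replicate is given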
Yeast UUG start: alters start codon recognition fidelity in yeast; S. cerevisiae UUG-firefly luciferase reporter, luminescence/redox ratio; activity score, % at 18.7 µM; 350,000 compounds, 0.13% hits; AID 602363;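 active = replicate mean at a twofold rise or more, about +100% in these data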;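 note: firefly luciferase made from a UUG start codon reports start codon fidelity; reporter light over untreated wells divided by growth signal over untreated wells; some hits fall short of that in this replicate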
Env fusion inh: HIV envelope-mediated fusion inhibition. HeLa-JRFL Env/CEM21 cell fusion, luciferase. inhibition, % at 12.3 µM. 360,000 compounds, 1.1% hits;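 active = mean replicate inhibition score of at least 50 and every replicate individually at or above 50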;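 note: 0% = plate neutral controls and 100% = maraviroc near 300 nM; one replicate is shown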
Rce1 inhib: blocks yeast Ras-converting enzyme; yeast membranes, quenched prenylated peptide cleavage fluorescence; calls only; 290,000 compounds, 0.27% hits; AID 2563;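 active = fall in fluorescence gain of 50% or more versus controls, with final raw signal at or below 3038400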;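 note: plate controls were neutral control wells for no effect and wells lacking membranes for full effect; tested at 10 µM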
PABP FP inh: PABP-poly(A) binding inhibition; P11940; PABP-poly(A) RNA binding, fluorescence polarization; inhibition, % at 35 µM; 290,000 compounds, 1% hits; AID 2014;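 active = 50% or more with normal probe brightness, or confirmed in later tests; about a fifth of its hits are not listed in these tables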;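 note: calls also rest on retests at 20 µM and on dose response follow-up; controls were probe without protein and protein plus probe with vehicle; some compounds called inactive have numbers as strong as hits; many hits fall short of the cut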
Target sequence (P11940 whole entry, looked up): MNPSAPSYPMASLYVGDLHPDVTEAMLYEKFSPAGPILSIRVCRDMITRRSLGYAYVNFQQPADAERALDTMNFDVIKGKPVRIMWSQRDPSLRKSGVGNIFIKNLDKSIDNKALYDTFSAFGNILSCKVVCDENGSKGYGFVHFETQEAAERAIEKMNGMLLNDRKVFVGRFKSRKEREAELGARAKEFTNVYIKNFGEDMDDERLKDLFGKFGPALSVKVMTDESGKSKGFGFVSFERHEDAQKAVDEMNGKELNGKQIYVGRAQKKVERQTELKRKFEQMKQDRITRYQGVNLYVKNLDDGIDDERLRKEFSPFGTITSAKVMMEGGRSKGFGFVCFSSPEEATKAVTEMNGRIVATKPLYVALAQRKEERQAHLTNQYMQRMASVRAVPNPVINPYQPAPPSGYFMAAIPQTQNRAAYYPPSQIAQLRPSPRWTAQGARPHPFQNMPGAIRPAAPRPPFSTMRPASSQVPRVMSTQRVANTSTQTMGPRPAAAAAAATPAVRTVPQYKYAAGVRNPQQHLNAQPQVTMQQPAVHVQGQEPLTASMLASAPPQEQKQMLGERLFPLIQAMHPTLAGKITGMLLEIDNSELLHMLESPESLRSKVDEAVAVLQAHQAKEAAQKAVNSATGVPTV
MT1-MMP act inh: MT1-MMP (human) activation inhibition; P50281; GFP/RFP ratio change, % at 20 µM; 360,000 compounds, 0.061% hits; HT1080 RFP-PRO-GFP cells, GFP/RFP ratio fluorescence, overnight; percent of plate control window, DMSO zero; AID 651647;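 active = GFP/RFP ratio change of at least 30% with cell ATP level not reduced by more than half and red fluorescence within 50% of control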; note: strong numbers were not always called active
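Read-out: GFP/RFP fluorescence ratio; Test system: RFP-PRO-GFP reporter HT1080 cells; Compound dosing: single-point 20 µM compound, 1% DMSO; Times: overnight compound exposure at 37 °C.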
eIF4H FP inh retest: also measured in eIF4H FP inh; calls as there; inhibition, %; compound at 20 µM; confirmation average;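 mean of two retest wells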
PABP FP inh retest: also measured in PABP FP inh; calls as there; inhibition, %; compound at 20 µM; confirmation repeats;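 mean of two retest wells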
MT1-MMP act inh RFP: second read-out of MT1-MMP act inh, no call of its own (marks repeat the call); RFP signal change, %; measured here: RFP expression control read;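 0 = vehicle wells; hits needed this value within 50% of zero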
Numbers without * were called inactive; i = inactive; nt = no result given.

SMILES	eIF4H FP inh	CSC inhib	Yeast UUG start	Env fusion inh	Rce1 inhib	PABP FP inh	MT1-MMP act inh	MT1-MMP act inh RFP	others
CC(C)=CCC[C@](C)(OC1OC(COC2OCC(O)C(O)C2O)C(O)C(O)C1O)C1CC[C@]2(C)C1C(O)CC1[C@@]3(C)CCC(O[C@@H]4O[C@H](CO)C(O)C(O)C4O[C@@H]4OC(CO)C(O)C(O)C4O)C(C)(C)C3CC[C@]12C (stereo not given in full)	nt	-3	13	-18	nt	nt	3	3
COc1ccc(CNC(=O)/C=C/c2ccc(OCCCF)cc2)cc1OC	8	11	-1	nt	i	-1	-7	-6
O=C(Cn1c2ccc(F)cc2c2nc3n(c(=O)c21)CCS3)NC1CCCC1	-9	-14	6	14	i	4	-3	-3
CC(=O)Nc1ccc(S(=O)(=O)N2CCC(C(=O)O)CC2)cc1	8	-18	7	2	nt	-1	-4	4
CCOC(=O)c1sc(=S)n(-c2ccccc2)c1SC	-10	-13	-8	-16	i	-5	6	6
Cc1cc(C)nc(N(C#N)Cc2ccccc2Cl)n1	1	-3	-35	22	i	-9	4	9
CC(O)(c1cccc(F)c1)c1nc(-c2ccncc2)cs1 (stereo not given)	nt	nt	-4	-37	nt	nt	0	-21
c1cc(-n2cnnn2)ccc1NC1=NCCC1	-3	-9	-16	-2	i	-1	-9	0
NC(=O)CC(NC(=O)Cc1cccc2ccccc12)c1ccc(N2CCC(Cc3ccccc3)CC2)c([N+](=O)[O-])c1 (stereo not given)	-3	9	-11	-9	i	0	4	-2
COc1ccc(NC(=O)N(CCN2CCCC2)Cc2cc3cc(OC)c(OC)cc3[nH]c2=O)cc1	2	-1	-4	nt	i	5	-1	2
COc1ccc(/C(C)=N/NC(=O)Cn2nc([N+](=O)[O-])cc2C)cc1	4	-15	nt	-20	i	6	1	-1
CSc1nc(-c2ccccc2F)c(C#N)c(=O)n1C	0	-3	nt	12	i	-3	-5	1
Cc1ccc(S(=O)(=O)N2CCN(C)CC2)c2nsnc12	27	nt	-18	-1	i	28	1	1
Cc1c(CCO)c(=O)n(C)n1C(=O)c1ccc(Cl)cc1	-2	4	14	-30	i	-4	0	2
O=S(=O)(CCN1CCN(C(c2ccccc2)c2ccccc2)CC1)C(F)(F)F	-1	4	-29	nt	i	-6	-23	-10
Cc1ccc(N2C(=O)c3n[nH]c(C)c3C2c2ccco2)cc1 (stereo not given)	-2	1	-14	-73	i	-1	2	4
COc1ccccc1C(=O)Oc1ccccc1C(=O)Nc1ccccc1	-10	9	-6	-127	i	-5	1	0
O=C(CC1C(=O)NCCN1Cc1cccc(C(F)(F)F)c1)NCCCOc1cccnc1 (stereo not given)	-11	-3	-14	8	i	13	1	7
CCNCC(O)COCC(O)CNCC (stereo not given)	-11	-12	-13	-11	i	2	5	4
O=C(/C=C/c1cccc([N+](=O)[O-])c1)N1CCOCC1	-6	-19	nt	-27	i	0	1	2
O=c1[nH]c2cc(Br)cnc2nc1/C=C(\O)c1ccc(F)cc1	20	5	-11	nt	i	25	-64	9
COc1cccc(CNc2nc3cc(-c4cnn(Cc5ccccc5)c4)sc3c(=O)n2C)c1	nt	nt	-6	30	nt	nt	17	-20
COc1ccc(CN2C[C@@H](CO)O[C@@H](n3cnc4c(NCCO)ncnc43)C2)cc1	nt	nt	6	3	nt	nt	5	9
Nc1nonc1C(=O)NCCNCc1ccccc1	-1	17	nt	nt	i	4	3	0
CC(C)OC(=O)c1ccc(N2CCN(c3ccccc3F)CC2)nc1	0	36	-25	-4	i	4	-3	-23
O=C(N/N=C/c1ccc(O)cc1O)C(=O)N/N=C/c1ccc(O)cc1O	nt	55	-20	19	i	nt	-10	-3
O=C(c1cccc(Cl)c1)C1CCCN(C(=O)c2ccc3c(c2)OCO3)C1 (stereo not given)	-1	28	-3	8	i	2	-2	2
CC(C)Oc1cccc(C(=O)N/N=C/c2coc3ccccc3c2=O)c1	-2	-14	0	-24	i	5	-8	-2
CC(NC(=O)c1ccccc1F)C12CC3CC(CC(C3)C1)C2 (stereo not given)	nt	67	15	24	i	nt	-1	1
O=C(CSc1nc2scc(-c3ccccc3)c2c(=O)[nH]1)NC1CCCCC1	1	7	nt	0	i	16	nt	nt
CCOc1ccc(S(=O)(=O)NCC2CCCO2)cc1NC(=O)c1ccccc1F (stereo not given)	-4	-7	-11	-2	i	6	0	1
COc1cc([C@H]2OC[C@H]3[C@@H]2CO[C@H]3c2ccc(O)c(OC)c2)ccc1O	nt	nt	-23	2	nt	nt	2	1
CCC(C)N(C(=O)COC(=O)c1ccc(=O)n(Cc2ccccc2)n1)C1CCS(=O)(=O)C1 (stereo not given)	nt	-6	-10	-43	i	nt	1	2
CN(C(=O)c1ccc(NC(=O)Cc2ccc([N+](=O)[O-])cc2)cc1)C1CCCC1	nt	-25	-7	14	nt	nt	5	-2
CCCc1ccc2oc(C(=O)N3CCN(CCC(N)=O)CC3)c(C)c2c1	3	-8	-14	5	i	-2	2	2
CCCCCCCCNC(=O)/C(C#N)=C/c1ccc(SC)cc1	3	11	-6	-20	i	52	-4	-2	eIF4H FP inh retest=-10;PABP FP inh retest=2
O=C1CN(C(=O)CC2c3ccccc3-c3ccccc32)CC(=O)N1	3	-2	-10	nt	i	2	-1	-1
COc1ccc(-c2nc(=S)c3ccc4ccccc4c3[nH]2)cc1	-15	nt	nt	11	i	10	6	4
CCOc1ccc(N(CC(=O)NC2CCCC2)C(=O)Cn2nnc(-c3ccc(C)o3)n2)cc1	-9	nt	6	2	i	6	1	0
Cc1cc(C)n(-c2nc(-c3cccc(Cl)c3)cs2)n1	5	-3	4	nt	i	-4	-1	-1
CC(C)(C)/C=N/NC(=O)C1CC1	-3	59	-7	10	i	-11	6	3
Cc1ccc(S(=O)(=O)ON2C(=O)c3ccccc3C2=O)c(C)c1	-8	-6	nt	-30	nt	3	4	5
c1ccc2c(NCCCN3CCOCC3)c3ccccc3nc2c1	7	51	nt	-107	nt	16	nt	nt
Cc1ccc(OCCNC(=O)C2CC(=O)N(Cc3ccccc3)C2)cc1 (stereo not given)	nt	nt	-10	1	nt	nt	-6	-3
O=C(c1ccc(NC2=NC3CS(=O)(=O)CC3S2)cc1)N1CCN(c2ccccc2)CC1 (stereo not given)	-4	nt	-3	19	i	2	2	2
Cc1ccc(/C=N/NC(=O)c2cccnc2)s1	7	-6	-15	4	i	0	-1	-2
COCc1ccc(C(=O)N2CCCC(N(C)CCc3ccccc3)C2)s1 (stereo not given)	nt	nt	-5	15	nt	nt	-2	5
Cc1ccc(S(=O)(=O)N2[C@@H](c3ccccc3F)C(C(=O)O)=CC[C@H]2c2ccc(Cl)c(Cl)c2)cc1	nt	0	-15	-6	nt	nt	1	4
Cn1cc(C(=O)c2ccc(F)cc2)cc1-c1nc2ccccc2n1C	-14	4	-17	29	i	-5	0	-11
COCCn1cnnc1SCC(=O)Nc1cccc(S(=O)(=O)N2CCCCC2)c1	nt	-18	-7	-6	nt	nt	-2	6
COc1ccc(-c2nc3ccccc3c(=O)n2CCOc2cccc(C)c2C)cc1	-10	22	-11	-10	i	7	-7	-5
CCC1C(=O)NCCN1C(=O)CCc1nnc(CCc2ccc(OC)cc2)o1 (stereo not given)	-2	-10	-12	-7	i	9	2	6
CC1CCC(NC(=O)CCS(=O)(=O)c2ccc3c(c2)NC(=O)CS3)CC1 (stereo not given)	2	9	8	3	i	4	-4	2
C=CCn1c(COc2ccccc2-c2ccccc2)nnc1SCC(=O)NC(=O)NCc1ccco1	-4	16	-4	nt	i	-2	2	-1
Cc1ccc(N2C(S)=C(C#N)C(=O)NC2c2ccco2)cc1 (stereo not given)	-7	nt	nt	0	i	-8	1	2
CCCS(=O)(=O)N1CCN=C1SCc1cccc(F)c1	3	-1	-14	1	i	-2	4	5
C=C(C)c1cccc(C(C)(C)NC(=O)NCc2ccc(OC)c(OC)c2)c1	2	-12	nt	-15	i	2	4	-1
O=C(NCCS(=O)(=O)NCc1ccccc1)c1ccccc1	nt	-5	-6	-8	i	nt	-1	-2
Cc1ccc(N2CN=C(c3ccccc3)NC2=S)cc1	6	-2	-33	-120	i	15	-5	-9
COc1ccc(-c2nc(CS(=O)CC(=O)NCCCN3CC(C)CC(C)C3)c(C)o2)cc1OC (stereo not given)	4	-14	-14	28	i	-7	2	3

Reprinted from the listing, 20 compounds:
SMILES	eIF4H FP inh	CSC inhib	Yeast UUG start	Env fusion inh	Rce1 inhib	PABP FP inh	MT1-MMP act inh	MT1-MMP act inh RFP	others
CCOc1ccc(N(CC(=O)NC2CCCC2)C(=O)Cn2nnc(-c3ccc(C)o3)n2)cc1	-9	nt	6	2	i	6	1	0
Cc1cc(C)n(-c2nc(-c3cccc(Cl)c3)cs2)n1	5	-3	4	nt	i	-4	-1	-1
CC(C)(C)/C=N/NC(=O)C1CC1	-3	59	-7	10	i	-11	6	3
Cc1ccc(S(=O)(=O)ON2C(=O)c3ccccc3C2=O)c(C)c1	-8	-6	nt	-30	nt	3	4	5
c1ccc2c(NCCCN3CCOCC3)c3ccccc3nc2c1	7	51	nt	-107	nt	16	nt	nt
Cc1ccc(OCCNC(=O)C2CC(=O)N(Cc3ccccc3)C2)cc1 (stereo not given)	nt	nt	-10	1	nt	nt	-6	-3
O=C(c1ccc(NC2=NC3CS(=O)(=O)CC3S2)cc1)N1CCN(c2ccccc2)CC1 (stereo not given)	-4	nt	-3	19	i	2	2	2
Cc1ccc(/C=N/NC(=O)c2cccnc2)s1	7	-6	-15	4	i	0	-1	-2
COCc1ccc(C(=O)N2CCCC(N(C)CCc3ccccc3)C2)s1 (stereo not given)	nt	nt	-5	15	nt	nt	-2	5
Cc1ccc(S(=O)(=O)N2[C@@H](c3ccccc3F)C(C(=O)O)=CC[C@H]2c2ccc(Cl)c(Cl)c2)cc1	nt	0	-15	-6	nt	nt	1	4
Cn1cc(C(=O)c2ccc(F)cc2)cc1-c1nc2ccccc2n1C	-14	4	-17	29	i	-5	0	-11
COCCn1cnnc1SCC(=O)Nc1cccc(S(=O)(=O)N2CCCCC2)c1	nt	-18	-7	-6	nt	nt	-2	6
COc1ccc(-c2nc3ccccc3c(=O)n2CCOc2cccc(C)c2C)cc1	-10	22	-11	-10	i	7	-7	-5
CCC1C(=O)NCCN1C(=O)CCc1nnc(CCc2ccc(OC)cc2)o1 (stereo not given)	-2	-10	-12	-7	i	9	2	6
CC1CCC(NC(=O)CCS(=O)(=O)c2ccc3c(c2)NC(=O)CS3)CC1 (stereo not given)	2	9	8	3	i	4	-4	2
C=CCn1c(COc2ccccc2-c2ccccc2)nnc1SCC(=O)NC(=O)NCc1ccco1	-4	16	-4	nt	i	-2	2	-1
Cc1ccc(N2C(S)=C(C#N)C(=O)NC2c2ccco2)cc1 (stereo not given)	-7	nt	nt	0	i	-8	1	2
CCCS(=O)(=O)N1CCN=C1SCc1cccc(F)c1	3	-1	-14	1	i	-2	4	5
C=C(C)c1cccc(C(C)(C)NC(=O)NCc2ccc(OC)c(OC)c2)c1	2	-12	nt	-15	i	2	4	-1
O=C(NCCS(=O)(=O)NCc1ccccc1)c1ccccc1	nt	-5	-6	-8	i	nt	-1	-2
